# Bioassay records deposited in PubChem by ICCB-Longwood Screening Facility, Harvard Medical School.
# HCMV UL50-53 inh: disrupts HCMV UL50-UL53 complex binding. HTRF UL50-UL53 interaction, normalized percent inhibition. inhibition, % (concentration not given with the values). 190,000 compounds, 0.15% hits;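 active = both replicates at 50% or more, plus weaker picks with an unusually low signal ratio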;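 note: stock transfer was 100 nL into about 20 µL; 0% = negative control wells and 100% = wells with untagged competitor protein; inactives centre near -12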
# GIV Gai3 FP: GIV-Galpha-i interaction inhibition. P08753. Galpha-i3/FITC-GIV peptide fluorescence polarization, 90 min; active compounds read low; scaled: aluminum fluoride 0%, vehicle 100%. percent of control (FP), % (concentration not given with the values). 210,000 compounds, 0.42% hits;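 active = replicate mean at 85% of control or lower, very high polarization wells dropped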;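 note: wells of about 15 µL received 100 nL stock; the first replicate is given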
# Target sequence (P08753 whole entry, looked up): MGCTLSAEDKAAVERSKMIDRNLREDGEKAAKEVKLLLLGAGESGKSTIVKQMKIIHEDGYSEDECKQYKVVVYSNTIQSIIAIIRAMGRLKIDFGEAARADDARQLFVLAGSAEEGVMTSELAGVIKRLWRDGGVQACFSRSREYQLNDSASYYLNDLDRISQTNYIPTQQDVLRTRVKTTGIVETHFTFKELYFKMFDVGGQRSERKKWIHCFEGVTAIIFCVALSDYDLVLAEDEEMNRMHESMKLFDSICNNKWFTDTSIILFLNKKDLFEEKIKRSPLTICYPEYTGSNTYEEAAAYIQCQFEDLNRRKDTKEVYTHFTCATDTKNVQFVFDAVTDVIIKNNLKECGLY
# Sa growth inh: S. aureus growth inhibition; S. aureus RN4220 growth, OD600, 20 h, 42 °C; active compounds read low; relative growth, % (no concentration beside the values); 170,000 compounds, 0.53% hits;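 active = growth at 42 °C up to 50% and 20 or more points under that at 30 °C, or under 10% at both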;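 note: 300 nL library stock went into each well; scaled to the means of positive and negative controls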
# Sa growth inh second temp: recorded beside Sa growth inh, whose call it bears; relative growth, %; measured here: growth at 30 °C;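 optical density after 20 h as mean of two plates; 100% = untreated growth and lower means inhibition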
# * = called active by the depositor; / = not tested or not shown; & = joins results of further samples. Compounds as they come, and some 0.85% of all compounds hit somewhere here.
item	compound	Sa growth inh	GIV Gai3 FP	Sa growth inh second temp	HCMV UL50-53 inh
1	O=C1CC2(CCN(C(=O)NCc3ccccc3)CC2)Oc2ccccc21	/	102	/	-12
2	COc1ccc2c(c1)C(C)=CC(C)(C)N2C(=O)CN1C(=O)CCC1=O	76	/	97	8
3	O=C(Nc1cccc(C(F)(F)F)c1)Nc1cccs1	38	108	18	-29
4	Fc1ccc(-c2[nH]ncc2CN2CCN(Cc3ccccc3)CC2)cc1	97	109	100	24
5	CN1CCC[C@@H]1CCO[C@](C)(c1ccccc1)c1ccc(Cl)cc1	94&94	105	80&83	-39&-17&-1&-17
6	COc1ccc(-c2nnc(Nc3ccc(S(=O)(=O)Nc4nccs4)cc3)c3ccccc23)cc1	/	105	/	-13
7	O=C(CN1CCC(C(=O)Nc2ccccc2)CC1)NN1C(=O)NC2(CCCCC2)C1=O	84	/	87	-16
8	CC(=O)Nc1nonc1-c1nnc(SCC(=O)Nc2cccc(F)c2)n1-c1ccccc1	97	99	48	-30
9	c1ccc(-c2nnn3c2nc(N2CCCC2)c2ccccc23)cc1	77	98	86	/
10	CC(NC(=O)c1ccccc1)c1n[nH]c(=S)n1C (stereo unspecified)	105	109	78	-11
11	COc1ccccc1C(=O)Nc1ccc2nc(N3CCC(C)CC3)cc(C)c2c1	101	104&104	78	13&-11
12	O=c1[nH]c2cc3c(cc2cc1CN(CCO)C(=S)Nc1cccc(Cl)c1)OCO3	114	98	100	-7
13	Cc1ccc2c(COC(=O)c3nc(-c4ccccc4)oc3C)cc(=O)oc2c1	94	/	99	-5
14	COc1cc2c(cc1OC)NC(=O)C2	83	97	80	64*
15	Cc1ccc(/C=C2/Sc3ccc(C(=O)N4CCN(c5ccccc5F)CC4)cc3NC2=O)cc1	101	110	94	/
16	Cc1ccc(Cc2c(C)nc3nc(SCC(=O)NC(C)c4ccccc4)nn3c2C)cc1 (stereo unspecified)	79	101	68	-3
17	CC(C)c1ccc(NC(=O)c2cc(F)cc3c2OCOC3)cc1	91	101	82	24
18	CCN(CC)CCNC(=O)c1cc(-c2ccc(Br)s2)nc2ccccc12	90	105	80	-70
19	CC(C)(C)NS(=O)(=O)c1ccc(N2C(=O)CC3(CCCC3)C2=O)c(Cl)c1	90	95	85	/
20	CCSc1ncc(Cl)c(C(=O)N2CCN(c3ccccc3OC)CC2)n1	105	104	87	-21
21	Cc1ccc2nc(-c3ccc(NC(=O)c4ccc(S(C)(=O)=O)cc4)cc3)sc2c1	78	102	95	/
22	COc1ccccc1N(Cc1cc2ccccc2[nH]c1=O)C(=O)C(C)(C)C	97	99	86	-19
23	O=S(=O)(NCCSc1ccccc1)c1ccc2c(c1)OCCO2	100	102	108	/
24	Cc1ccc2cc(CN(Cc3ccccc3)S(C)(=O)=O)c(=O)[nH]c2c1	83	100	85	8
25	COC(=O)c1ccc(NC(=O)NCCn2nnc3cc(S(=O)(=O)N(C)C)ccc32)cc1	82	103	94	/

# One compound at a time (already shown). Screens in order: Sa growth inh, GIV Gai3 FP, Sa growth inh second temp, HCMV UL50-53 inh
# CC(C)c1ccc(NC(=O)c2cc(F)cc3c2OCOC3)cc1 across the screens: 91, 101, 82, 24
# CC(NC(=O)c1ccccc1)c1n[nH]c(=S)n1C (stereo unspecified) across the screens: 105, 109, 78, -11

# (listing goes on)
item	compound	Sa growth inh	GIV Gai3 FP	Sa growth inh second temp	HCMV UL50-53 inh
26	CC(=O)N1CCN(C(=O)c2sccc2-c2ccccc2)CC1	100	/	91	-1
27	Cc1nc2nc[nH]n2c(=O)c1NS(=O)(=O)c1ccc2c(c1)CCCC2	/	94	/	3
28	O=C(NCc1cccc2ccccc12)C12CC3CC(CC(C3)C1)C2	98	/	92	-2
29	CCOc1ccc(-c2nc(CSCC(=O)N3CCN(c4cccc(C(F)(F)F)c4)CC3)c(C)o2)cc1	108	100	72	/
30	CCOc1cccc(C2c3cccn3-c3c(c(C)nn3-c3ccccc3)CN2C(=O)NCC(=O)OC)c1 (stereo unspecified)	/	103	/	-20
31	CCC1CCC(=NNC(=O)CNc2ccc(OC)cc2)CC1 (stereo unspecified)	88	/	85	-16
32	CCc1ccc2occ(CC(=O)Nc3ccccc3C(F)(F)F)c2c1	113	109	100	11
33	C#CCOC(=O)Nc1ccc(OCC(F)(F)F)nc1	100	107	84	-18
34	N#CC1(c2ccccc2)CCCN1C(=O)c1ccc(Br)o1 (stereo unspecified)	88	/	88	-6
35	CC1(NCC(=O)N2CCN(S(=O)(=O)c3ccc4ccccc4c3)CC2)CCS(=O)(=O)C1 (stereo unspecified)	74	/	94	-18
36	CC1SC2(C(=O)Nc3ccccc32)N(c2ccccc2)C1=O (stereo unspecified)	105	102	91	-1
37	CCCN(CCC)S(=O)(=O)c1ccc2c(c1)CCN2C(=O)CC	91	101	90	-14
38	O=C(Cn1c(=O)oc2ccccc21)NC1CCN(Cc2ccccc2)CC1	100	103&102	97	-8&-15
39	CCOc1ccc(NC(=O)CSc2cn(CCNC(=O)c3ccccc3F)c3ccccc23)cc1	101	102	89	-9
40	O=C(COC(=O)C1CC1)Nc1ccc(I)cc1	96	/	90	-18
41	O=C(Oc1coc(CSc2nnc(NC(=O)C3CC3)s2)cc1=O)c1cccs1	104	98	77	-22
42	CCc1ccccc1N(CC(=O)N1CCC(Cc2ccccc2)CC1)S(C)(=O)=O	92	111	69	/
43	C=CCN(c1ccccc1)S(=O)(=O)c1c(C)[nH]c(=O)[nH]c1=O	99	104	103	4
44	Cc1nnc(SCC(=O)NCCc2ccccc2)[nH]c1=O	103	109	95	2
45	CCCOc1ccccc1C1Oc2nc(SC)nnc2-c2ccccc2N1C(C)=O (stereo unspecified)	98	105	85	-62
46	O=c1cc(-c2ccccc2)[nH]c2nc3ccccc3n12	104	103&102	96	1&-12
47	C/C(=N\c1nnc(Sc2nc3cc(Cl)ccc3s2)s1)N(C)C	80	98	86	2
48	Clc1ccccc1CSc1nnc(-c2ccc(Br)cc2)o1	/	104	/	16
49	Cn1c(CNC2CCCCC2)c(C#N)c2ccccc21	107	104	81	-5
50	COc1ccc(Oc2nc(N3CCOCC3)c(Cl)c3c2N(Cc2ccccc2)CCS3(=O)=O)cc1	/	100	/	8
51	CCCc1nn2c(=O)cc(COC(=O)c3cccc(NC(=O)COc4ccccc4C)c3)nc2s1	93	97	88	/
52	COc1cccc(C2C(C(=O)Nc3cccnc3)=C(C)Nc3nc(SCc4ccccc4)nn32)c1 (stereo unspecified)	125	102	96	-51
53	COc1ccc(NC(=O)c2nnc(CSCC(=O)NCCc3c[nH]c4ccc(C)cc34)s2)cc1	/	98	/	-33
54	Cc1cc(C)cc(NC(=O)C2CCCN2S(=O)(=O)c2ccc3c(c2)CCCC(=O)N3)c1 (stereo unspecified)	77	93	84	/
55	CN(Cc1nc(-c2ccccc2)no1)C(=O)C1CCCCC1	106	100	90	-6
56	COc1cc(/C=C2\SC(N)=NC2=O)ccc1Oc1ccc(C(F)(F)F)cc1[N+](=O)[O-]	/	112	/	-6
57	Cc1cccc(C(=O)OCC(=O)N2CCCc3ccccc32)c1	111	/	88	-16
58	Cc1cccc2cc(C#N)c(NCCCNS(=O)(=O)c3ccccc3)nc12	114	97	84	8
59	Cc1cc(NC(=O)Nc2ccccc2)n(-c2ccccc2)n1	116	105	100	12
60	[O-]c1n[n+](-c2ccc(Cl)cc2)cc2ccccc12	/	102	/	-74
61	Cc1ccc2oc(=O)n(CCC#N)c2c1	93	99	83	-18
62	COc1ccc(-c2cn3c4ccccc4n(N)c3n2)cc1OC	99	126	39	/
63	CCc1cccc(NC(=O)CSc2n[nH]c(-c3ccccc3Cl)n2)c1	83	104	50	/
64	O=C(Cn1c(=O)oc2ccccc21)N1CCc2ccccc21	101	102&105	94	-12&-18
65	COc1cc(/C=C(\C#N)C(=O)Nc2nnc(C(F)(F)F)s2)ccc1OCc1ccc(C(F)(F)F)cc1C(F)(F)F	/	103	/	-237
66	O=C(O)c1cccc(C(=O)O)c1Br	104	103	97	10
67	Cc1ccc(CCNC(=O)c2cc3c(=O)oc4ccccc4c3s2)cc1	83	106	94	-24
68	CCOc1ccccc1C1C2=C(CC(c3ccc(O)cc3)CC2=O)Nc2onc(C)c21 (stereo unspecified)	/	110	/	-34
69	O=C(Cn1c(=O)n(-c2ccc(F)cc2)c(=O)c2sc3ccccc3c21)N1CCCC1	102	101	86	-56
70	CCOc1ccc(-c2cc(C(=O)N3CCN(S(=O)(=O)c4cc(Cl)ccc4OC)CC3)[nH]n2)cc1	65	100	112	/
71	Cc1nc(Nc2ccc(NC(=O)C(C)C)cc2)cc(N2CCOCC2)n1	/	100	/	-45
72	Cc1cc(N2CCN(c3ccc(Cl)cc3)CC2)n2ncnc2n1	/	102	/	-22
73	COc1ccc(CC(C(=O)O)N2C(=O)c3ccccc3C2=O)cc1 (stereo unspecified)	98	99	88	-45
74	Cc1ccc(-c2cc(-c3ccc4c(c3)OCO4)c(C#N)c(N)n2)cc1	92	102	110	17
75	CCc1ccc(S(=O)(=O)c2nnn3c2nc(NC(C)C)c2cc(Cl)ccc23)cc1	100	103	90	-24

# Structures listed so far that contain a cyano group:
item	compound	Sa growth inh	GIV Gai3 FP	Sa growth inh second temp	HCMV UL50-53 inh
34	N#CC1(c2ccccc2)CCCN1C(=O)c1ccc(Br)o1 (stereo unspecified)	88	/	88	-6
49	Cn1c(CNC2CCCCC2)c(C#N)c2ccccc21	107	104	81	-5
58	Cc1cccc2cc(C#N)c(NCCCNS(=O)(=O)c3ccccc3)nc12	114	97	84	8
61	Cc1ccc2oc(=O)n(CCC#N)c2c1	93	99	83	-18
65	COc1cc(/C=C(\C#N)C(=O)Nc2nnc(C(F)(F)F)s2)ccc1OCc1ccc(C(F)(F)F)cc1C(F)(F)F	/	103	/	-237
74	Cc1ccc(-c2cc(-c3ccc4c(c3)OCO4)c(C#N)c(N)n2)cc1	92	102	110	17

# Continuation:
item	compound	Sa growth inh	GIV Gai3 FP	Sa growth inh second temp	HCMV UL50-53 inh
76	CCn1cc(C(=O)Nc2cccc(Cl)c2)c2cc(OC)c(OC)cc2c1=O	95	103	96	3
77	N#C/C(=C\c1cn[nH]c1-c1cccc(Br)c1)C(=O)O	97	/	90	-75
78	CCCCNC(=O)c1ccc2c(=O)n(-c3ccccc3)c(=O)[nH]c2c1	87	97	85	10
79	O=C(O)CCN1C(=O)NC2(CCCCC2)C1=O	96	/	98	-1
80	Cn1c(=O)oc2cc(S(=O)(=O)N3CCC(C(=O)N4CCN(c5cccc(Cl)c5)CC4)CC3)ccc21	90	107	96	-4
81	Cc1ccccc1NC(=O)c1cc2c(CO)cnc(C)c2oc1=O	/	98	/	-68
82	COc1ccc(NCc2nnc3n2CCCCC3)cc1	84	/	87	-24
83	Cc1ccc(NC(=O)c2cnn3c(C)cc(C)nc23)cc1	/	98	/	0
84	CCCNC(=O)c1ccc(-n2c(C)cc3c2CCCC3)cc1	92	120	92	/
85	COc1ccc(-c2ccnc3c(C#N)cnn23)cc1	/	101	/	-33
86	O=C(c1cc2cc(Cl)ccc2[nH]1)N1CCN(c2ccc(=O)n(-c3ccc(F)cc3)n2)CC1	/	103	/	-36
87	COc1c(C)cnc2c1c(=O)n(CC(=O)NC1CCCCC1)c(=O)n2C	/	96	/	-4
88	Cn1c(=O)c2c(nc(SCc3ccc(F)cc3)n2C)n(C)c1=O	82	/	82	-4
89	COc1ccc(CC(=O)Nc2nnc3n2CCS3)cc1	105	100	103	/
90	COCCOC(=O)C1=C(C)NC(C)=C(C(=O)OCCOC)C1c1cn(-c2ccccc2)nc1-c1cccc([N+](=O)[O-])c1	/	104	/	-34
91	COCC(C)NC(=O)Cn1nc(C)c(NC(=O)c2cc(-c3ccc(OC)c(OC)c3)no2)c1C (stereo unspecified)	102	97	90	-12
92	CC(=O)N1N=C(c2c(-c3ccccc3)c3cc(Br)ccc3[nH]c2=O)CC1c1nc2ccccc2[nH]1 (stereo unspecified)	/	103	/	-3
93	Cc1c(C(=O)NN=Cc2ccc(-c3ccc(Cl)c(C(=O)O)c3)o2)sc(N)c1C#N	79	102	72	-57
94	CC(C)Cc1cc(-c2nnc3sc(-c4cccs4)nn23)n[nH]1	/	103	/	-70
95	NC(=O)COC(=O)c1cccnc1SCC(=O)Nc1ccccc1OC(F)F	80	/	91	-36
96	NC(=O)C1(N2CCCCC2)CCN(C2CC(=O)N(CCc3ccccc3)C2=O)CC1 (stereo unspecified)	91	/	93	8
97	CC(C)Nc1cccnc1N1CCN(C(=O)c2cc3cc(NS(C)(=O)=O)ccc3[nH]2)CC1	97	100	84	-34
98	COc1ccc(OCC(=O)NC2Sc3c(OC)ccc(OC)c3N2C)cc1 (stereo unspecified)	94	/	99	-1
99	COc1ccc(C2CC(=O)C3=C(C2)Nc2onc(C)c2C3c2cccc(Cl)c2)cc1OC (stereo unspecified)	/	106	/	-11
100	Cn1ncc(C(=O)N2CCN(c3ccccc3)CC2)c1C1CCN(C(=O)OC(C)(C)C)CC1	102	104	94	/
101	NN=C1c2ccccc2-c2ccccc21	92	108	80	-91
102	CC1CCN(S(=O)(=O)c2cc(C(=O)N3CCCCC3)n(C)c2)CC1	/	106	/	-23
103	Cc1ccc2cc3cc(C(=O)Nc4ccc(F)cc4Cl)oc3nc2c1	97	110	77	/
104	Cc1ccc(-c2noc(C3CCCN(S(=O)(=O)c4ccc5c(c4)OCCO5)C3)n2)cc1 (stereo unspecified)	136	104	91	-5
105	N#CC(C#N)=CNc1cccc(NC(=O)c2cccc(Cl)c2)n1	97	108	89	-41
